Kir21 inh – inhibitors of mouse Kir2.1 inward-rectifier potassium channel; Inward rectifier potassium channel 2 (Mus musculus), P35561; HEK293-Kir2.1, FluxOR thallium flux fluorescence; stronger effect = lower value; B-score at 10 µM; hit rate 0.85% among 310,000; AID 1672, 2009;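 active = fluorescence ratio B-score at or below minus 3 SD of library scores, with starting-brightness B-score within 2 SD, cut at about -4.2 in these data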;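 also: channel flux triggered by added potassium and thallium sulfate stimulus; B-score of peak minus minimum fluorescence over baseline after thallium stimulus; more negative B-score means stronger Kir2.1 block with less thallium influx; some compounds called inactive have numbers as strong as hits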
Target sequence (P35561 whole entry, looked up): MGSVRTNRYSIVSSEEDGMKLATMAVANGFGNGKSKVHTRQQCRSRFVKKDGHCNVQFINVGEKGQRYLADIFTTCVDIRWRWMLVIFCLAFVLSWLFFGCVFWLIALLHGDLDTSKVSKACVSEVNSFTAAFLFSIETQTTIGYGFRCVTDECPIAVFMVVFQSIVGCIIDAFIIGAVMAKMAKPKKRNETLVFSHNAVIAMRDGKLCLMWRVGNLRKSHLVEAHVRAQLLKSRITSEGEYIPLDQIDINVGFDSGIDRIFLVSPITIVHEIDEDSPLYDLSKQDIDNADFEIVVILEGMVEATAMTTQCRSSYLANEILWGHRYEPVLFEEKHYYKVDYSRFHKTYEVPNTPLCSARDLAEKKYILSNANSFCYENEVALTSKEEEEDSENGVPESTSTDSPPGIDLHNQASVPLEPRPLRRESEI
* = called active by the depositor. Some of the compounds tested; most or all hits stand in other tables.

entry	Kir21 inh	structure
1	0.05	Cc1ccc(N2CC(C(=O)Nc3ccncc3)CC2=O)cc1 (stereo not drawn)
2	0	CC(C)Oc1ccc(CCc2nnc(SCC(=O)O)n2-c2ccccc2)cc1
3	0.65	O=C(/C=C/c1c(F)cccc1Cl)Nc1ncccn1
4	0.09	Cc1cc(C)c2c(N)c(C(=O)Nc3ccccc3Cl)sc2n1
5	-0.19	O=C(Nc1ccccc1C(F)(F)F)NC1CCCCCCC1
6	0.08	O=C(N/N=C/c1ccc(N2CCCC2)c([N+](=O)[O-])c1)c1cccnc1
7	2.6	CCn1ncc(C(=O)Nc2cc(C)on2)c1C
8	1.3	C=CCNc1nc(C(=O)OCC(=O)c2ccccc2)cs1
9	0.82	Cc1ccccc1/C=c1\s/c(=C\C(=O)C(C)(C)C)[nH]c1=O
10	-2	CCN(CCn1cccn1)C(=O)C1CCC(=O)N(CCN2CCOCC2)C1 (stereo not drawn)
11	-0.76	Clc1ccc(-c2ccc(CNCc3ccccn3)o2)cc1
12	1.1	CCOC(=O)Cn1c(=NC(=O)c2cccs2)sc2cc(C(=O)OC)ccc21
13	-0.65	Brc1ccccc1C1=Nn2c(nnc2-c2ccco2)SC1
14	-0.62	COc1ccccc1C(=O)N/N=C(\C)CC(=O)Nc1ccc(Nc2ccccc2)cc1
15	-1.1	CC(C)Cn1cc(Cl)c(=O)n(CC(C)C)c1=O
16	1.3	Cc1nc2sc3c(c2c(=N)n1N)CCCC3
17	-0.2	CC(C)(C)c1cnnn1-c1ccc(C=O)cc1
18	0.05	O=C(O)CC/C(=N\NC(=O)CNC(=O)c1cccc(Cl)c1)c1ccccc1
19	0.48	c1ccc(N2CCN(c3nnnn3-c3ccccc3)CC2)cc1
20	-0.01	CCN(Cc1ccncc1)Cc1nc(Cc2ccccc2Cl)no1
21	-0.01	Cn1nc(C(F)(F)F)c(/C=N/OC(=O)c2ccccc2)c1SCc1ccc(Cl)cc1
22	-1.3	C(=N/n1c2ccccc2c2ccccc21)/c1ccco1
23	-0.29	OCCNc1nc(Nc2ccccc2OC(F)(F)F)nc(N2CCCC2)n1
24	-1.9	COc1cc2ccccc2cc1C(=O)Nc1ccc(NC(=O)c2cccs2)cc1
25	0.05	Cc1ccccc1N1C(=O)CC2(CCCC2)CC1=O
26	0.51	CCC1S/C(=N/C(=O)NC2CCCCC2)NC1=O (stereo not drawn)
27	0.05	Cc1ccc(S(=O)(=O)c2cc3c(=O)n4ccccc4nc3n(CC3CCCO3)c2=N)cc1C (stereo not drawn)
28	-2.7	CCC(CC)C(=O)Nc1cccc(C(=O)N2CCCCCC2)c1
29	-0.84	COC(=O)C(C(=O)Nc1cccc(C)n1)C1CCCCCC1 (stereo not drawn)
30	-1.5	COc1cc(C(=O)Nc2cccc(-c3cn4cccnc4n3)c2)cc(OC)c1OC

Shown with tabs: five of the compounds above
entry	mol	Kir21 inh
6	O=C(N/N=C/c1ccc(N2CCCC2)c([N+](=O)[O-])c1)c1cccnc1	0.08
7	CCn1ncc(C(=O)Nc2cc(C)on2)c1C	2.6
8	C=CCNc1nc(C(=O)OCC(=O)c2ccccc2)cs1	1.3
9	Cc1ccccc1/C=c1\s/c(=C\C(=O)C(C)(C)C)[nH]c1=O	0.82
10	CCN(CCn1cccn1)C(=O)C1CCC(=O)N(CCN2CCOCC2)C1 (stereo not drawn)	-2

Entries from the list above containing a thiophene ring, fused or not, in the order listed:
entry	Kir21 inh	structure
4	0.09	Cc1cc(C)c2c(N)c(C(=O)Nc3ccccc3Cl)sc2n1
12	1.1	CCOC(=O)Cn1c(=NC(=O)c2cccs2)sc2cc(C(=O)OC)ccc21
16	1.3	Cc1nc2sc3c(c2c(=N)n1N)CCCC3
24	-1.9	COc1cc2ccccc2cc1C(=O)Nc1ccc(NC(=O)c2cccs2)cc1

Next section.
entry	Kir21 inh	structure
31	-1.6	COc1ccc(C(=O)NC2CCCc3c2cnn3-c2cc(F)cc(F)c2)c(OC)n1 (stereo not drawn)
32	-0.39	CCCCCCC(=O)Nc1nc(C)c(-c2csc(Nc3cccc(OC)c3)n2)s1
33	-0.14	COc1ccccc1CNC(=O)c1cnc2ccccn2c1=O
34	-0.63	Cc1ccc(N)cc1-n1c(C)ccc1C
35	-1.4	O=C(CCn1nc(-c2ccc(Cl)cc2)c2ccccc2c1=O)NN1CCOCC1
36	1	CCN(C(=O)CSc1nnc(-c2ccncc2)o1)c1ccccc1
37	0.4	COc1ccccc1N1CCN(c2nc3ccccn3c(=O)c2C=O)CC1
38	0.86	COCCCNc1ccc([N+](=O)[O-])cc1C(=O)Nc1cccc(C)n1
39	1.9	COc1ccc(-c2nn(-c3ccccc3)cc2/C=C/C(=O)OCC(=O)Nc2cccc(C#N)c2)cc1
40	0.51	O=C(CN1C(=O)CSC1=O)c1ccccc1
41	1.5	CCN1CCN(c2ccc(S(=O)(=O)N3CCOCC3)cc2NC(=O)/C=C/c2ccc(OC)c(OC)c2)CC1
42	0.36	CNC(=S)Nc1ccc(OCc2ccccc2)cc1
43	0.7	CCC(c1nnnn1CCc1ccccc1)N1CCN(C(=O)c2ccco2)CC1 (stereo not drawn)
44	1.2	O=C(CN1CCCCC1)c1c[nH]c2ccccc12
45	-2.3	CCN(C(=O)c1ccc(Br)cc1)c1ccccc1
46	-0.18	Cc1ccc2oc(C(=O)N(Cc3ccc(N(C)C)cc3)C3CCS(=O)(=O)C3)c(C)c2c1 (stereo not drawn)
47	-1.6	COc1ccc(C(=O)Nc2cccc3nc(C)ccc23)c(OC)c1
48	0.52	OCCN1CCN(c2nnc(-c3ccccc3)c3ccccc23)CC1
49	2.2	CCOc1ccc(N(CC(=O)Nc2ccc(CC)cc2)S(=O)(=O)c2c(C)[nH]c(=O)[nH]c2=O)cc1
50	-0.36	CC(C)c1ccc(N(CC(=O)NCCSCc2ccco2)S(C)(=O)=O)cc1
51	-0.92	CC(=O)Nc1cc([N+](=O)[O-])ccc1N1CCOCC1
52	-1.5	CCc1nnc(NC(=O)c2ccncc2)s1
53	-0.37	CC(CN(C)Cc1ccccc1)OC(=O)c1ccc2c(c1)OCCO2 (stereo not drawn)
54	0.32	Cc1csc(NC(=O)CCc2c(C)nc3cc(-c4cccc(F)c4)nn3c2C)n1
55	0.51	CC(C)c1nnc(NC(=O)CN(C)S(=O)(=O)c2ccc3c(c2)OCCO3)s1
56	0.4	O=C(O)c1cccnc1SC1CC(=O)N(c2ccc(OC(F)F)cc2)C1=O (stereo not drawn)
57	0.78	Cc1ccsc1C(=O)N1CCC(N2CCC(C(=O)NCC3CCCO3)CC2)CC1 (stereo not drawn)
58	1.1	CCC12CN3CCN(CC(C3)/C1=N\NC(=O)c1ccc(F)cc1)C2
59	0.04	S=C(Nc1ccc(Cl)cc1Cl)Nc1ccccc1Oc1ccccc1
60	2.2	CCc1cccc2c3c([nH]c12)C(CC)(CC(=O)O)OCC3 (stereo not drawn)

The list goes on (3 carried over from the part before).
entry	Kir21 inh	structure
58	1.1	CCC12CN3CCN(CC(C3)/C1=N\NC(=O)c1ccc(F)cc1)C2
59	0.04	S=C(Nc1ccc(Cl)cc1Cl)Nc1ccccc1Oc1ccccc1
60	2.2	CCc1cccc2c3c([nH]c12)C(CC)(CC(=O)O)OCC3 (stereo not drawn)
61	0.09	c1ccc(-c2nnc(-c3ccncc3)o2)cc1
62	0.55	O=C(/C=C/c1ccccc1)NCc1cccnc1
63	-0.57	CCOC(=O)c1cc(-c2cc3ccccc3o2)n[nH]1
64	0.05	COc1ccc(NC(=O)c2nc3ccccc3s2)cc1
65	2.8	CN(Cc1ccccc1)C(=O)CCc1ccccc1
66	-1.7	O=C(OCC(=O)N1CCC(Cc2ccccc2)CC1)c1ccc[nH]c1=O
67	-2	CCOc1ccc(/C=C/C(=O)Oc2ccccc2)cc1
68	0	Cc1ccc2nc(NC(=O)C3CCCN(S(=O)(=O)c4cccc5nsnc45)C3)sc2c1 (stereo not drawn)
69	2.5	Cc1ccc(S(=O)(=O)NC2CC2)cc1
70	-0.17	Cc1nc(-c2ccccn2)sc1C(=O)Nc1ccc(Cl)c(Cl)c1
71	0.54	CN=c1scc(C)n1/N=C/c1ccc2c(c1)OCO2
72	-2.4	CCN(CC)CCNc1c2c(c(C#N)c3nc4ccccc4n13)CCCC2
73	0.04	O=C(Cn1cc(C(=O)c2ccco2)c2ccccc21)NC1CCCC1
74	1.7	COC(=O)C1=C(C)NC(=O)C1(NS(=O)(=O)c1ccc(C)cc1)C(F)(F)F (stereo not drawn)
75	-0.42	O=C(/C=C/c1ccccc1)NC(NC(=S)Nc1cccc(O)c1)C(Cl)(Cl)Cl (stereo not drawn)
76	-1.9	O=C1CCCC2=C1C(c1cccs1)CC(=O)N2c1ccc(F)cc1 (stereo not drawn)
77	-2	O=C(c1cc2cc([N+](=O)[O-])ccc2s1)N1CCOCC1
78	0.9	Cc1ccc(C(=O)NCC(=O)N2CCCCCC2)cc1
79	1.8	COc1ccc(CCNC(=O)CCCCCNC(=O)N2CCn3c2nc2ccccc23)cc1OC
80	-0.04	Cc1cc(OCC(=O)NC(C)C)cc(C)c1Cl
81	-0.84	CCC(=O)Nc1ccc(S(=O)(=O)c2ccc(NC(=O)CC)cc2)cc1
82	-2.1	c1ccc(CSc2nnc(Cc3ccccn3)o2)cc1
83	0.8	COc1ccc(S(=O)(=O)NN=C2CCCCC2)cc1
84	1.9	Cc1nn(CC(=O)NCc2cc3ccccc3[nH]2)c(C)c1[N+](=O)[O-]
85	-0.36	COc1ccc(Cl)cc1NC(=S)N1CCC(c2ccc(C)cc2)C1 (stereo not drawn)
86	-0.45	Cn1c(C(=O)OC(C(=O)NC2CCCCC2)c2ccncc2)cc2sccc21 (stereo not drawn)
87	-0.67	O=C(c1ccco1)N1CCN(Cc2c(F)cccc2Cl)CC1
88	0.26	CCc1cccc2c(C(=O)COC(=O)C3=NNC(=O)CC3)c[nH]c12
89	-1.2	Fc1ccccc1CNC(=S)Nc1ccc(Cl)cc1
90	2.1	Nc1nnc(CC(=O)NCc2ccccc2)s1

Remaining list, next part.
entry	Kir21 inh	structure
91	-1.4	O=C(CS(=O)(=O)Cc1ccccc1)Nc1nnc(C(F)(F)F)s1
92	1.2	Cc1ccc(C2CC(c3cccc(NS(C)(=O)=O)c3)=NN2S(C)(=O)=O)cc1 (stereo not drawn)
93	0.06	S=C(Nc1ccc2c(c1)OCO2)N1CCCC1
94	0.11	Cc1nc2sc(-c3ccccc3)cc2c(=O)n1N
95	-0.06	COc1ccc(-c2nnco2)cc1OC
96	1.9	COc1ccc2cc(-c3csc(-c4cccnc4)n3)ccc2c1
97	-0.99	CCOC(=O)N/N=C/c1cn(Cc2ccc(Cl)cc2)c2ccccc12
98	-3.8	O=S(=O)(NCc1ccc2c(c1)OCO2)c1c(F)cc(F)cc1Br
99	-1.2	Cc1cc(C)cc(NC(=S)NCCCN2CCOCC2)c1
100	1.4	CCCNC(=S)NC1CC2CCCC(C1)N2CC(C)C (stereo not drawn)
101	-0.18	NC(=O)c1c(N)sc2c1CCCCC2
102	-1.4	Cc1ccc(C)c2c1cc(C)c1nnc(SCc3ccccn3)n12
103	-0.48	CCN(CC)c1ccc(-c2nnc(SCC(=O)Nc3ccccc3C#N)n2-c2ccccc2)cc1
104	0.17	O=C(Nc1cccc(C(F)(F)F)c1)OCCN1CCN(Cc2ccccc2)CCC1=O
105	-0.02	CC(=O)c1c(C)oc2ccc(N(C(=O)c3ccncc3)S(=O)(=O)c3ccccc3)cc12
106	-0.96	CC(=O)Nc1ccc(S(=O)(=O)N(C)c2ccc(OCC(=O)OCC(=O)Nc3ccc(OC(F)F)cc3)cc2)cc1
107	0.1	OCCNc1nc(-c2ccccc2)c2ccccc2n1
108	1.1	Clc1ccccc1/C=C/c1ccnc2ccccc12
109	1.2	Cn1nccc1C(=O)Nc1ccc(S(=O)(=O)N2CCCC2)cc1
110	-0.11	O=C(C1CCCO1)N1CCN(C(=S)Nc2ccc(Cl)c(Cl)c2)CC1 (stereo not drawn)
111	0.03	CCOC(=O)COc1nc2c(c(-c3ccco3)c1C#N)CCc1ccccc1-2
112	-0.11	Clc1ccc(-c2n[nH]c3c2CCCC3)cc1
113	0.01	Cc1ccc(S(=O)(=O)CC(=O)Nc2ccccn2)cc1
114	-1.4	Cc1nc(-c2ccc3c(c2)OCCCO3)cs1
115	0.75	COc1ccc(CCNC(=O)C2CCN(C(=O)N(C)C)CC2)cc1OC
116	-0.43	CC1CCN(C(=O)Cn2cc(C(=O)C3CC3)c3ccccc32)CC1
117	0.48	Nc1c(-c2cccs2)cnn1-c1nc(-c2ccc(F)cc2)cs1
118	0.9	COc1ccccc1NC(=O)c1ccccc1-c1nc(-c2ccccc2OC)no1
119	-0.04	Cc1[nH]c(-c2ccco2)nc1C(=O)O
120	-0.53	COc1ccc(/C=N/NC(=O)c2ccccc2O)cc1COc1ccccn1

Following part.
entry	Kir21 inh	structure
121	0.56	COc1cc(C(=O)NNC(=O)Nc2ccc([N+](=O)[O-])cc2)cc(OC)c1OC
122	-1.7	COc1ccc(NS(=O)(=O)c2ccc(C)c(C(=O)N3CCC3)c2)cc1
123	-0.4	CS(=O)(=O)Nc1nc2n(n1)C(c1ccccc1)CC(c1ccccc1)N2 (stereo not drawn)
124	-0.65	COc1cccc(OCCCCCN2CCOCC2)c1
125	0.01	COC(=O)NCC(c1ccco1)N1CCN(c2ccc(F)cc2)CC1 (stereo not drawn)
126	0.16	Cc1ccc(CNC(=O)c2cccnc2)cc1
127	-1.9	O=C(Nc1cc(N2CCOCC2)ncn1)c1ccc(F)cc1
128	-0.8	COc1cccc(N2C(=O)CC(Sc3nc(C)cc(C)n3)C2=O)c1 (stereo not drawn)
129	0	NC(=O)c1ccc(SCC(=O)OCC(=O)N2CCCCC2)c([N+](=O)[O-])c1
130	1.4	COc1ccc(NC(=O)CN(C)C(=O)c2ccc(N3CCCCC3)c([N+](=O)[O-])c2)cc1
131	-0.55	COc1ccc2[nH]cc(C(=O)C(=O)N3CCCCC3)c2c1
132	-0.28	Cc1cc(=O)[nH]c(SCc2nnc(-c3ccccc3)o2)n1
133	1	O=C(CNC(=O)c1ccc(Br)o1)NCCc1ccc(F)cc1
134	0.94	Cc1nc(-c2ccccc2)sc1C(=O)/C=C/c1ccccc1
135	0.29	O=C(CSc1nncn1-c1ccccc1)Nc1c(F)cccc1F
136	-0.83	COC(=O)c1sccc1NC(=O)C1CC2CCC1C2 (stereo not drawn)

Screens from PubChem BioAssay.
